From PubChem
RecA intein inh = Mtb RecA intein splicing inhibitors, primary screen, biochemical, fluorescence, HTS. Protein RecA (Mycobacterium tuberculosis (strain ATCC 25618 / H37Rv)), P9WHJ3. cell-free RecA intein splicing. actives 0.75% (n = 290,000). inhibition, %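 (about 9 µM by stock and volumes)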; in the data active = inhibition above about 30%; inconclusive = no clear call, values can overlap the other calls;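 also: 0% = vehicle wells and 100% = reference inhibitor control wells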
Target sequence (P9WHJ3 whole entry, looked up): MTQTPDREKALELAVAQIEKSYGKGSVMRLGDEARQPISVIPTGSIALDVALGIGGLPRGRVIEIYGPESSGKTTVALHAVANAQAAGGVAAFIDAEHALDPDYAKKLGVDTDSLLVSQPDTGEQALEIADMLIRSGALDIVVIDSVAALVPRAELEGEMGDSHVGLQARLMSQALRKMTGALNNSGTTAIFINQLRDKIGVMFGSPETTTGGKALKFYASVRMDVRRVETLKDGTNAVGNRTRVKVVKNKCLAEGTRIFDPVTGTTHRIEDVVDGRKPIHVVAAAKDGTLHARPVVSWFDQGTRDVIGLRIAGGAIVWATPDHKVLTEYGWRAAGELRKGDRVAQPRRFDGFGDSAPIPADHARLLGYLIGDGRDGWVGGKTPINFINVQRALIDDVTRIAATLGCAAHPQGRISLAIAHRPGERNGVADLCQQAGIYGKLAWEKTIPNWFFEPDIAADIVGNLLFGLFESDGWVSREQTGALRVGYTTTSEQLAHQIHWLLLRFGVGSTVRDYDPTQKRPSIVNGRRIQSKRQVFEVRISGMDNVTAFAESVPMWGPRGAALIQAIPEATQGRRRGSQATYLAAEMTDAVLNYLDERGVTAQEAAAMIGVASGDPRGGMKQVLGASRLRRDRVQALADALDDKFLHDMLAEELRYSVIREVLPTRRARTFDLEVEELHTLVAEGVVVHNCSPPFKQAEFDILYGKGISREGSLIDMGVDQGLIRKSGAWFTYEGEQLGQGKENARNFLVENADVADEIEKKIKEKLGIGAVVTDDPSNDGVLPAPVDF
YopH PTP inh = YopH tyrosine phosphatase inhibitors, primary screen, biochemical, fluorescence Ex485/Em525 | YopH tyrosine phosphatase [Yersinia enterocolitica] | inhibition, %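 (about 10 µM by stock and volumes)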 | actives 0.16% (n = 140,000);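 active = inhibition of 50% or more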;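 also: controls were vehicle for no effect and minimum signal wells for full effect; inactives centre near -20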
Mtb bLac sens = beta-lactam sensitization of Mtb H37Rv, H37Rv; actives 0.27% (n = 330,000); M. tuberculosis H37Rv growth with meropenem, percent inhibition; hits of this screen are not shown here; inhibition, % at 25 µM;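 active = about 74% or more and at least 40 points above the plate without the antibiotic, then above 30% in a dose series; inconclusive = first-round hits that could not be retested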;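 also: growth measured after seven days incubation then overnight dye step; 0% = bacteria only wells and 100% = bacteria with antibiotic; twin plates without the antibiotic show which effects depend on it; some results filed as inactive read as strong as hits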
Arbovirus anti = antivirals against arbovirus infection, primary screen, cell-based, full library, 10K replicate subset. inhibition, % at 10 µM. actives 0.37% (n = 200,000). arbovirus infection cell-based antiviral screen;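 active = inhibition from about 30%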;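 also: bluetongue infection of BSR cells; cell survival read as ATP light after 72 h; 0% = infected wells without compound and 100% = uninfected wells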
Mtb growth = M. tuberculosis H37Rv growth inhibitors, H37Rv strain (AID 1626); M. tuberculosis H37Rv growth inhibition; higher % means a stronger effect; inhibition, % at 10 µM, or IC50 in µM where a hit was titrated; actives 0.95% (n = 220,000);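 active = confirmed in a dose series; inconclusive = inhibition above 80% but not taken into the dose series; inactive = below 80% or under 30% at every dose of the series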;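 also: bacteria incubated seven days before Alamar blue readout; 0% = bacteria only wells and 100% = bacteria with antibiotic wells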
Arbovirus anti repeat = further read-out of Arbovirus anti, marked with its call; inhibition, %; measured here: 10K subset replicate screen; many hits read low in the repeat;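 first of two repeat runs on a subset; 0% = infected and 100% = uninfected wells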
* hit, by the source's call; ? = inconclusive; . = not tested or not shown. An excerpt; the hit share may differ from the screen's.

Preview (17 entries):
SMILES	RecA intein inh	YopH PTP inh	Mtb bLac sens	Arbovirus anti	Mtb growth	others
Cc1cccc(NC(=O)/C(C#N)=C\c2cc(C)n(-c3ccc(C(=O)O)cc3)c2C)c1	.	.	8.8	18.0	-8.7%
COc1ccccc1N1CCN(S(=O)(=O)CCNC(=O)C2CC2)CC1	-1.0	.	-10.1	.	.
COCCCNC(=O)c1ccc(CN2CCc3ccccc3C2)cc1	-1.4	.	-4.0	-4.1	-1.4%
CC(=O)NC1CC2CCCC(C1)N2C(=O)Nc1ccc(Cl)c(C(F)(F)F)c1 (stereo not given)	.	-14.2	-7.9	10.3	-18.6%
O=C1CCC(C(=O)OC(C(=O)c2c[nH]c3ccccc23)c2ccccc2)=NN1 (stereo not given)	2.9	2.4	8.1	1.7	-3.6%
CCNC(=S)N(Cc1c(C)noc1C)c1ccccc1	0.0	-30.2	-3.2	1.6	-11.8%
Cc1nc(Nc2ccc3c(c2)OCO3)c2oc3ccccc3c2n1	1.4	-40.3	2.2	-28.0	-15.2%
CCn1c(C(=O)N2CCc3ccccc3C2)cc2sccc21	5.8	-30.7	0.4	-3.1	4.2%	Arbovirus anti repeat=4.2
Cc1ccc(NC(=O)c2cccs2)cc1NC(=O)c1cccnc1	2.4	.	-2.7	7.6	3.3%
Cc1cc(CN2CCN(CCC#N)CC2)c(O)c(C2(C)CCCCC2)c1	.	-10.2	5.3	-23.1	-10.2%
Cc1nc(NC(=O)CSc2nc3cccnc3n2C2CCCCC2)sc1C	0.7	-21.9	3.2	0.9	-3.0%
O=C1CCC(C(=O)Nc2ccc(OC(F)F)cc2)N1 (stereo not given)	-0.1	-20.5	-2.1	-2.7	-1.4%
Cc1csc(NC(=O)CCCSc2nc3ccccc3s2)n1	4.0	-28.6	-10.1	14.8	-5.6%
Cc1ccc2nnn(Cc3cccc(C(C)(C)C)c3O)c2c1	3.6	.	-0.2	.	.
Oc1ccc(N2CCN(Cc3c(-c4ccccc4)nc4ccccn34)CC2)cc1	-4.9	.	-1.3	.	.
Cc1ccc(C(C)C)cc1NC(=O)Nc1ccc([N+](=O)[O-])cc1	5.2	.	9.1	.	17.9%
COC(=O)CCc1c(C)c(C(=O)c2cc(F)c(F)c(F)c2F)c2ccccn12	1.9	.	-0.3	4.6	1.5%

Results (from the top)
SMILES	RecA intein inh	YopH PTP inh	Mtb bLac sens	Arbovirus anti	Mtb growth	others
Cc1cccc(NC(=O)/C(C#N)=C\c2cc(C)n(-c3ccc(C(=O)O)cc3)c2C)c1	.	.	8.8	18.0	-8.7%
COc1ccccc1N1CCN(S(=O)(=O)CCNC(=O)C2CC2)CC1	-1.0	.	-10.1	.	.
COCCCNC(=O)c1ccc(CN2CCc3ccccc3C2)cc1	-1.4	.	-4.0	-4.1	-1.4%
CC(=O)NC1CC2CCCC(C1)N2C(=O)Nc1ccc(Cl)c(C(F)(F)F)c1 (stereo not given)	.	-14.2	-7.9	10.3	-18.6%
O=C1CCC(C(=O)OC(C(=O)c2c[nH]c3ccccc23)c2ccccc2)=NN1 (stereo not given)	2.9	2.4	8.1	1.7	-3.6%
CCNC(=S)N(Cc1c(C)noc1C)c1ccccc1	0.0	-30.2	-3.2	1.6	-11.8%
Cc1nc(Nc2ccc3c(c2)OCO3)c2oc3ccccc3c2n1	1.4	-40.3	2.2	-28.0	-15.2%
CCn1c(C(=O)N2CCc3ccccc3C2)cc2sccc21	5.8	-30.7	0.4	-3.1	4.2%	Arbovirus anti repeat=4.2
Cc1ccc(NC(=O)c2cccs2)cc1NC(=O)c1cccnc1	2.4	.	-2.7	7.6	3.3%
Cc1cc(CN2CCN(CCC#N)CC2)c(O)c(C2(C)CCCCC2)c1	.	-10.2	5.3	-23.1	-10.2%
Cc1nc(NC(=O)CSc2nc3cccnc3n2C2CCCCC2)sc1C	0.7	-21.9	3.2	0.9	-3.0%
O=C1CCC(C(=O)Nc2ccc(OC(F)F)cc2)N1 (stereo not given)	-0.1	-20.5	-2.1	-2.7	-1.4%
Cc1csc(NC(=O)CCCSc2nc3ccccc3s2)n1	4.0	-28.6	-10.1	14.8	-5.6%
Cc1ccc2nnn(Cc3cccc(C(C)(C)C)c3O)c2c1	3.6	.	-0.2	.	.
Oc1ccc(N2CCN(Cc3c(-c4ccccc4)nc4ccccn34)CC2)cc1	-4.9	.	-1.3	.	.
Cc1ccc(C(C)C)cc1NC(=O)Nc1ccc([N+](=O)[O-])cc1	5.2	.	9.1	.	17.9%
COC(=O)CCc1c(C)c(C(=O)c2cc(F)c(F)c(F)c2F)c2ccccn12	1.9	.	-0.3	4.6	1.5%
CSc1ccc(NC(=O)NCc2cccnc2)cc1	1.0	.	-1.4	.	.
CC(C)OCC(O)Cn1c(N2CCCC2)nc2c1c(=O)[nH]c(=O)n2C (stereo not given)	1.2	-47.8	2.8	-1.0	-8.7%
Cn1cc(CN2CCCCC2c2ccccn2)c(-c2ccc3c(c2)OCCO3)n1 (stereo not given)	0.5	.	-6.5	-6.5	-3.1%
COc1ccc(-n2ncc(S(=O)(=O)c3ccccc3)c2-c2ccc(Cl)cc2)cc1	7.9	-41.0	9.2	-28.1	-5.3%
Cc1cccc(-n2c(SCc3cc(=O)n4ccsc4n3)nc3ccccc3c2=O)c1	3.5	-22.2	29.7	3.9	17.1%
CCOc1ccc(C(=O)NC(=S)Nc2ccccc2N2CCCCC2)cc1[N+](=O)[O-]	5.2	-18.1	83.7	2.6	74.4%
CC(=O)N1CCn2c3c(c4cc(C)ccc42)CCCC31 (stereo not given)	-5.5	.	-7.4	3.7	-0.6%
Cc1ccnc(SCc2cc(=O)c(OC(=O)c3ccc(S(=O)(=O)N(C)C)cc3)co2)n1	3.2	-16.9	-4.7	-7.0	-2.4%
COc1ccc(CCNC(=O)Cc2cccc(C(F)(F)F)c2)cc1OC	-0.3	.	-3.0	.	.
O=C(CN(CCc1ccccc1)S(=O)(=O)c1ccc(Br)cc1)N/N=C/c1ccccc1C(=O)O	-2.1	.	-3.2	-7.8	2.0%
CCS(=O)(=O)N1CCN(c2nc(-c3ccccc3)cs2)CC1	-3.5	-16.3	-4.5	0.5	-6.5%
CC(=O)C(Cc1cnc(Cl)s1)(Cc1cnc(Cl)s1)C(C)=O	0.6	-22.4	3.7	8.4	7.8%
CCOC(=O)C1=C(C(F)(F)F)Nc2ncnn2C1c1ccc(OC)c(OC)c1OC (stereo not given)	0.9	-34.6	2.4	3.1	-4.5%
c1ccc(Cc2nnc3sc(-c4ccccn4)nn23)cc1	-1.6	-23.6	41.8	-7.7	-2.2%
O=C1/C(=C/c2ccc(F)cc2)SC(=S)N1CC(=O)N1CCCCC1c1cccnc1 (stereo not given)	38.0*	.	74.5	.	.
O=C1CCC/C1=C/Nc1cccc(F)c1	1.1	.	6.5	.	-12.1%
CC(=O)CC1(O)C(=O)N(Cc2ccccc2)c2ccccc21 (stereo not given)	-3.2	-7.5	2.3	6.3	3.4%
CCC(=NC1CC1)c1c(O)n(-c2ccc(OC)cc2)c(=O)[nH]c1=O	-1.4	-41.7	-3.5	2.7	-1.6%
CCOCCCn1c(SC(C(=O)Nc2cc(C)ccc2C)c2ccccc2)nnc1-c1ccc(Cl)cc1 (stereo not given)	9.5	-23.2	13.4	-13.6	6.6%
O=C(Nc1ccccn1)c1ccc(CN(c2ccccc2)S(=O)(=O)c2ccccc2)cc1	-0.9	.	-6.3	-30.3	-1.9%
O=C(CCCN1C(=O)/C(=C/c2ccc3c(c2)OCO3)SC1=S)Nc1cccc(C(=O)O)c1	13.2	.	4.2	.	.
CN1CCN(c2nc3ccccc3o2)CC1	3.8	.	5.2	.	-1.6%
CC1CCN(C(=O)CSc2nncn2C)CC1	-1.1	7.5	-10.5	-1.5	-0.9%
COc1c(F)c(F)c(C(=O)O)c(Nc2cc(C)cc(C)c2)c1F	-3.2	.	-2.3	22.1	-9.4%
Cc1c(Cl)cccc1NC(=S)N(Cc1cccnc1)Cc1ccccc1Cl	9.6	.	5.0	-10.6	-3.0%
CCN1C(=O)c2ccc(C(=O)NCc3ccccc3)cc2C1=O	0.6	-20.4	-4.4	-2.2	-1.1%
Cc1ccc(Cl)cc1N1CCN(C(=O)COc2ccc(S(=O)(=O)NC(C)C)cc2)CC1	2.4	-2.5	-2.6	28.7	8.6%	Arbovirus anti repeat=-2.0
Cc1ccc(S(=O)(=O)NCCC(=O)NCC(c2ccco2)N2CCCCC2)cc1C (stereo not given)	1.3	.	3.8	.	.
COc1ccc(C(C(=O)NC2CCCC2)N(C(=O)c2snc(-c3ccc(F)cc3)c2N)c2ccc(OC)cc2)cc1 (stereo not given)	-2.6	-29.3	-7.2	-23.9	4.0%
COc1ccccc1NC(=O)CSc1ccc(-c2ccccn2)nn1	0.9	.	100.2	.	.
CC1=NN(c2ccc(C)cc2C)C(=O)C1C(c1ccccc1O)C1C(=O)N(c2ccc(C)cc2C)N=C1C (stereo not given)	77.6*	-13.8	-1.3	-9.2	-1.6%
COc1cccc(C2C(C(=O)c3ccc(C)o3)=C(O)C(=O)N2CCN2CCOCC2)c1OC (stereo not given)	3.3	.	?	.	.
Nn1c(COc2ccccc2F)nnc1SCC(=O)NC1CCCCC1	0.0	.	-15.5	.	.
c1ccc(CN2CCN(c3ncccn3)CC2)cc1	0.2	.	-2.1	.	.
COCCCn1c(SCC(=O)NCc2ccccc2)nc2ccccc2c1=O	0.6	-25.4	-2.9	-7.5	-0.5%
CCCc1cc(C(=O)NC2CCCCC2)no1	-0.4	-28.9	1.8	0.9	6.3%
CC1=C(C(=O)Nc2ccccc2)C(c2ccc(Cl)cc2)n2c(s/c(=C/c3cccc(OCC(=O)O)c3)c2=O)=N1 (stereo not given)	11.4	.	12.8	4.1	4.9%
COCCNS(=O)(=O)c1ccc(C2CNC(=O)C2)cc1 (stereo not given)	0.5	-23.0	2.0	0.5	1.7%	Arbovirus anti repeat=8.6
COCCNC(=O)c1onc(CSc2ccc(C(C)C)cc2)c1C(=O)O	-3.6	-1.6	-0.9	8.0	-18.6%
O=S(=O)(Nc1cccc(CCc2ccccn2)c1)c1ccc2ccccc2c1	.	-21.2	.	9.6	.
O=C(OCC(=O)N1CCCc2ccccc21)c1cccc(S(=O)(=O)N2CCOCC2)c1	-2.3	.	2.0	.	.
CCN(CC)S(=O)(=O)c1ccc(N2CCOCC2)c(NC(=O)C2CCCC2)c1	-0.3	-6.8	-12.7	-2.0	-5.0%
CC(C)(C)n1nnc(CCc2nnn(C(C)(C)C)n2)n1	-3.9	10.4	4.0	1.7	4.8%
More compounds
SMILES	RecA intein inh	YopH PTP inh	Mtb bLac sens	Arbovirus anti	Mtb growth	others
CC(C)(C)N=Cc1cc(-c2ccccc2)sc1O	-2.8	-10.4	-3.7	-1.1	0.4%
CCCOc1ccc(CNC(=O)C2CCN(c3nnc(N4CCCC4=O)s3)CC2)cc1	-0.4	.	0.8	.	.
CC(C)(C)OC(=O)N[C@@H](Cc1ccccc1)c1nnc(SCC(=O)O)o1	-6.8	-53.1	-3.8	16.0	-1.4%
COCc1ccc(C(=O)NC2CC(C)(C)Cc3c2cnn3-c2ccc(OC)cc2)o1 (stereo not given)	-1.4	.	-1.1	.	.
OCC1(CCCc2ccccc2)CCN(C2CCC2)CC1	3.0	.	2.7	.	.
Cc1ccc(S(=O)(=O)N2CCN(C(=O)Cc3ccccc3)CC2)cc1	2.1	-2.5	-3.5	4.6	-3.0%
CCCCn1c(N)c(N(CCOC)C(=O)C2CCN(S(=O)(=O)c3ccccc3)CC2)c(=O)[nH]c1=O	3.4	.	-3.8	.	.
Cc1ccc(-c2cc(C(=O)N3CC(C)CC(C)C3)c3ccccc3n2)o1 (stereo not given)	-18.8	.	6.6	.	.
COc1cc(C(=O)Nc2nnc(S(=O)(=O)N3CCCCCC3)s2)cc(OC)c1OC	2.4	.	-4.8	.	.
COCCN(C(=S)Nc1cccc(Cl)c1C)C(C)c1ccco1 (stereo not given)	5.1	.	-0.1	.	2.1%
CCOC(=O)CCCn1ccc2cc(S(=O)(=O)N3CCCC3)ccc21	1.5	.	0.0	.	.
Cc1cc2c(ncn2Cc2ccccc2)c(N)c1C	3.4	.	-6.4	-5.1	1.6%
C=CCn1c(-c2ccccc2)nc(=S)c2c1CCCC2	1.6	.	-3.5	.	-9.6%
